# Compound activity deposited in PubChem by several laboratories.
# PrP UTR inh – inhibition of PrP 5' UTR reporter expression; inhibition, % (test concentration not listed); cell-based PrP 5' UTR mRNA reporter, plate reader; 0.35% of 340,000 active;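 active = every replicate at 50% or more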;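 also: 0 = median of the neutral control wells; tested in H4 reporter cells; numbers are from one replicate; inactives centre near -14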
# Sa RN4220 lethal – kills Staphylococcus aureus RN4220; inhibition, % (concentration not given with the values); S. aureus RN4220 growth, OD600, 16 h; AID 1259311; 0.33% of 330,000 active;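 active = z-score of -3 or lower and OD600 up to 0.18 on both plates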;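 also: plate controls were untreated cells for no effect and reference antibiotic for full effect; stock transfer was 100 nL into about 80 µL; one replicate is shown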
# Sa ugtP lethal – compounds lethal to S. aureus RN4220 ugtP deletion mutant. growth inhibition, % (concentration not given with the values). AID 1259309. 0.54% of 330,000 active. OD600 growth, 16 h; some inactives read as strong as hits;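 active = z-score under -3 and OD600 up to 0.15 on both plates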;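 also: plate controls were untreated wells for no effect and antibiotic for full effect; wells of about 80 µL received 100 nL stock; the first replicate is given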
# Mtb hypoxia inh – Mtb hypoxia fluorescent reporter inhibition; M. tuberculosis hypoxia-regulated fluorescent reporter, fluorescence; fluorescence inhibition, % (no concentration beside the values); 0.1% of 300,000 active; AID 1159583;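 active = 35 to 45% if threefold the growth effect, above 45% if 1.5-fold the growth effect; inactive = the rest, general growth blockers included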;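 also: wells of about 50 µL received 100 nL stock; 0% = vehicle wells and 100% = reference inhibitor wells; whole bacteria with a GFP reporter of the hypoxia response; strong numbers were not always called active; many hits fall short of the cut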
# BJeLR viability – BJeLR cell viability loss; AID 1554; 0.17% of 300,000 active; BJeLR (HRASV12) viability, CellTiter-Glo ATP luminescence, 48 h; reference of the scale not given here; inhibition, % (concentration not given with the values);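 active = replicate mean above 50%; inconclusive = above 50% but judged a plate artefact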;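 also: 50 nL library stock added to about 25 µL; numbers are from one replicate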
# Autofluor counter – flagged as autofluorescent in microsphere protease counterscreen; compound autofluorescence counterscreen, microsphere flow cytometry; hits give high values; AID 624483; 3.1% of 360,000 active; fluorescence intensity (test concentration not listed);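 active = at least 3 SD above the mean of all compounds, about 16000 in these data; inconclusive = too few beads counted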;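 also: 100 nL of 1 mM stock went into each well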
# Mtb hypoxia inh growth – further read-out of Mtb hypoxia inh, marked with its call; growth inhibition, %; measured here: M. tuberculosis growth (absorbance);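 0% = vehicle and 100% = reference antibiotic; read after six days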
# The depositor's hits bear a star; ? = inconclusive; · = not tested or not shown.
SMILES,PrP UTR inh,Sa RN4220 lethal,Sa ugtP lethal,Mtb hypoxia inh,Mtb hypoxia inh growth,BJeLR viability,Autofluor counter
CC(C)NC(=O)CCn1ccc2cc(S(=O)(=O)N3CCCC3)ccc21,-1,3.1,3,13,1,-7,5475
CCOC(=O)C1CCCN(C(=O)COC(=O)c2cc(=O)c3ccccc3o2)C1 (centres undefined),-20,2.0,7,10,5,1,4164
Cc1nc2scc(C)n2c(=O)c1S(=O)(=O)Nc1ccc(F)cc1,-21,2.9,-1,8,5,-3,3599
Cc1ccc(NC(=O)CN(C)CCOc2ccccc2)c([N+](=O)[O-])c1,-16,3.0,6,0,-5,-4,3081
CC(=O)c1ccc(NC(=O)CSc2ccc(-c3ccc4c(c3)OCO4)nn2)cc1,-81,-5.1,1,-6,-8,-2,10379
Cc1c([N+](=O)[O-])nnn1-c1cc(Cl)cc(Cl)c1,-19,9.0,10,10,3,4,4031
CC(C)CC(C(=O)Nn1cnnc1)N1C(=O)c2ccccc2C1=O (centres undefined),-19,2.1,4,10,3,-6,9271
Cc1ccc(Oc2cc(NN3CCCCC3)c([N+](=O)[O-])cc2[N+](=O)[O-])c(Cl)c1,3,2.9,9,·,·,-7,3734
O=C1CC(C(=O)Nc2ccc(Br)cc2)S/C(=N\N=C\c2ccco2)N1 (centres undefined),-4,·,·,·,·,-5,4140
CC(=O)Nc1ccc(OCC(O)CN2CCN(c3cc(Cl)ccc3C)CC2)cc1 (centres undefined),-5,5.9,8,-1,-3,1,4177
COc1ccc(C(=O)Nn2c(SCC(=O)c3ccccc3)nc3ccccc3c2=O)cc1,16,1.1,-2,9,13,6,6164
COCCn1c(SCC(N)=O)nc2c(c1=O)SC(C)C2 (centres undefined),2,4.5,8,9,7,3,5813
Cc1cc(Nc2ccc(Br)c(C)c2)n2nc(C)nc2n1,-3,3.1,7,·,·,-2,4561
CC1CCCC(C)N1N=Cc1ccccc1C(=O)O (centres undefined),·,15,8,5,-1,·,·
COCCn1c(=NC(=O)c2ccc(S(=O)(=O)N3CCc4ccccc4C3)cc2)sc2cc(OC)ccc21,-27,-3.9,-2,5,7,0,2277
COc1ccc(N(C)S(=O)(=O)c2cccc(C(=O)Nc3ccc(N4CCOCC4)cc3)c2)cc1,-6,1.8,-2,-2,-3,·,3974
Cc1[nH]c2ccccc2c1C(=O)COC(=O)Cn1cnc2ccccc21,-5,-1.7,-1,-2,-4,1,2027
Cc1nn(C)cc1C1C2=C(CC(C)(C)CC2=O)OC2=C1C(=O)CC(C)(C)C2,0,3.6,3,6,-2,-10,8214
COc1cccc(C2CC(c3ccccc3Cl)Nc3nc(N)nn32)c1 (centres undefined),-2,2.9,8,2,3,2,·
CCOC(=O)c1ccc(NS(=O)(=O)c2c(N)[nH]c(=O)[nH]c2=O)cc1,12,-16,-20,3,10,-3,2949
COCCN=c1scc(C)n1/N=C/C1CC2C=CC1C2 (centres undefined),-42,·,·,·,·,8,4712
O=C(NC1(C(F)(F)F)N=C(c2ccccc2)NC1=O)c1ccc(Cl)cc1Cl (centres undefined),-12,-3.2,-5,-4,-2,-2,11436
O=C(/C=C/c1cccc([N+](=O)[O-])c1)Nc1ccccc1N1CCOCC1,6,4.6,-2,3,9,11,1952
CC(C)Oc1ccc(C(=O)NC2(C(F)(F)F)N=C3SCCN3C2=O)cc1 (centres undefined),-6,2.9,2,-1,2,-3,20653*
Cc1ccccc1OCC(=O)Nc1ccc2c(c1)n(C)c(=O)n2C,-27,2.0,2,7,8,6,4641

# Entries above that contain an NH in an aromatic ring, in the order listed:
SMILES,PrP UTR inh,Sa RN4220 lethal,Sa ugtP lethal,Mtb hypoxia inh,Mtb hypoxia inh growth,BJeLR viability,Autofluor counter
Cc1[nH]c2ccccc2c1C(=O)COC(=O)Cn1cnc2ccccc21,-5,-1.7,-1,-2,-4,1,2027
CCOC(=O)c1ccc(NS(=O)(=O)c2c(N)[nH]c(=O)[nH]c2=O)cc1,12,-16,-20,3,10,-3,2949

# The list continues.
SMILES,PrP UTR inh,Sa RN4220 lethal,Sa ugtP lethal,Mtb hypoxia inh,Mtb hypoxia inh growth,BJeLR viability,Autofluor counter
O=C(CCS(=O)(=O)c1ccc(F)cc1)N1CCOCC1,-33,-0.8,1,-12,-3,2,5950
O=C(Nc1ccccn1)c1sc2cc([N+](=O)[O-])ccc2c1Cl,-35,4.2,6,5,-4,-4,·
Cc1cc(C)cc(NC(=O)CSc2nnc(C3CC3)n2CC2CCCO2)c1 (centres undefined),-18,1.9,9,5,1,-15,5107
OC(COCc1cccs1)CN1CCN(c2ccccn2)CC1 (centres undefined),-7,-0.8,5,13,0,-12,7891
O=C(CSc1nc2nn(-c3ccccc3)c(=O)c-2c2n1CCCCC2)c1ccc(OC(F)F)cc1,-26,23,-3,21,8,·,3673
COC(=O)c1ccc(NC(=S)N2CCN(Cc3ccccc3OC)CC2)cc1,-49,0.6,0,4,8,2,4348
CCCCC(=O)OCC(=O)Nc1ccc(SC(F)F)cc1,-22,5.1,0,6,9,·,4130
CCCc1cc(=O)n2[nH]c(NCc3ccccc3Cl)nc2n1,-23,0.6,0,11,0,-1,?
COc1ccc(C=Nn2c(C)cc(C)cc2=O)cc1,·,3.0,1,13,6,·,·
COc1ccc(NC(=O)C2CC(c3ccccc3Cl)=NO2)cc1 (centres undefined),-33,0.6,7,6,9,-5,3718
O=C(O)c1c(-c2ccccc2)nnc2ccccc12,-19,-0.8,5,13,6,-1,3903
COc1ccc(C2NCc3ccc4c(c3-n3cccc32)OCO4)cc1OC (centres undefined),-10,0.1,2,·,·,6,4996
COCc1cc(C)nc2sc(C(=O)Nc3ccccc3Br)c(N)c12,-21,·,·,·,·,-1,3461
NC(=O)[C@@H]1CCCNc2c(I)cc([N+](=O)[O-])cc2C(=O)N[C@@H](Cc2ccccc2)C(=O)N[C@@H](Cc2cnc[nH]2)C(=O)N1,-21,·,·,·,·,-1,2952
COc1ccc(NC(C)=O)cc1NC(=O)CSc1nnc(-c2ccccc2)n1N,1,3.1,1,3,-1,-2,10659
O=C(CCCCCCCC(=O)N1CCCCCC1)N1CCCCCC1,-22,1.3,1,15,12,·,4053
O=C(C1CCCO1)N1CCN(S(=O)(=O)c2cc(F)ccc2F)CC1 (centres undefined),-20,0.5,8,4,-14,-2,6240
CC(C)Cc1cc(C(=O)N2N=C(C(F)F)CC2(O)C(F)F)c2ccccc2n1 (centres undefined),-6,5.9,-7,-5,6,0,22633*
Cc1cc(C)[n+](-c2ccc(F)cc2)c2[nH]c(=O)[nH]c(=O)c12,-4,5.0,-2,5,-4,-10,2606
C=C(C)C1Cc2c(C)nn(-c3cccc4cccnc34)c2C1 (centres undefined),-1,3.1,4,13,4,7,4695
O=S1(=O)Cc2cc3ccccc3cc2C1,-13,4.2,1,7,1,1,4770
CC(C)[C@H](NC(=O)N1CCn2c1nc1ccccc12)C(=O)N1CCCCC1,8,6.0,3,-1,-1,9,4341
CC(C)n1nnnc1SCC(=O)N1N=C(c2cccs2)CC1c1cccs1 (centres undefined),-37,-1.0,-3,0,-3,·,3642
c1coc(-c2nnc3sc(Cc4cccs4)nn23)c1,-7,6.8,-2,24,10,5,15704
COc1ccccc1N(C)S(=O)(=O)c1ccc(C)c(C(=O)NC(C)c2ccccn2)c1 (centres undefined),-10,3.8,4,0,-5,·,·
# Next section.
SMILES,PrP UTR inh,Sa RN4220 lethal,Sa ugtP lethal,Mtb hypoxia inh,Mtb hypoxia inh growth,BJeLR viability,Autofluor counter
CNS(=O)(=O)c1cccc(C(=O)NCC(c2ccco2)N(C)C)c1 (centres undefined),-10,4.1,3,11,5,-6,3831
CCOP(=O)(OCC)C(NC(=O)Nc1ccc(Cl)c(Cl)c1)c1ccccc1 (centres undefined),-22,-3.8,-5,1,-2,-11,2361
C=CCOc1c(Br)cc(C=NNC(=O)Cc2ccc(C(F)(F)F)cc2[N+](=O)[O-])cc1OC,·,3.5,-1,-7,-3,·,·
CC(C)CCOP(=O)(c1ccc(N(C)C)cc1)C(O)c1ccccc1F (centres undefined),-26,5.1,-7,2,9,3,5525
CCOc1ccc(NC(=O)c2ccc3c(=O)n4c(nc3c2)CCCCC4)cc1,-30,-1.3,-6,-2,6,1,5683
COc1cc(/C=N/NC(=O)CC2(C)OCCO2)cc(Br)c1O,-16,·,·,·,·,0,2198
COc1ccc2c(Cl)c(C(=O)NN=Cc3ccncc3)sc2c1,·,-1.1,-2,8,11,·,·
Cc1ccccc1-n1nc2c(c1NC(=O)c1ccc3c(c1)OCO3)CS(=O)(=O)C2,-14,3.0,8,10,12,1,4709
CNC(=O)c1ccccc1NC(=O)C1CC(=O)N(c2ccc(OC)cc2)C1 (centres undefined),-3,3.6,16,3,13,-15,4758
O=C(c1ccco1)N1CCN(Cc2cc(=O)c(OCc3ccc(F)cc3)co2)CC1,1,-0.8,5,3,5,3,4980
Cc1ccc(-n2nnnc2-c2cnc3ccc(Cl)cc3c2-c2ccccc2)cc1,-18,-0.1,-8,10,0,1,9628
CC1=C(C(=O)Nc2ccccc2)C(c2ccco2)n2ncnc2N1 (centres undefined),-29,5.5,11,13,6,15,9145
CC(C)c1ccc(NC(=O)Cn2cccc2C2=NC(c3ccccc3)CO2)cc1 (centres undefined),-12,·,·,·,·,-5,8968
O=C(N[C@@H](Cc1ccccc1)C(=O)N1CCN(S(=O)(=O)c2ccccc2F)CC1)c1ccco1,-18,4.9,-1,-3,9,·,2981
Cc1csc(SCC(=O)Nc2cc(C(N)=O)cc(C(N)=O)c2)n1,-9,0.8,-1,6,0,·,3052
Cc1ccc(/C=C/C(=O)NCc2ccc(S(N)(=O)=O)cc2)o1,0,1.1,0,3,6,0,4195
COc1ccc(N/C(C)=C/C(=S)Nc2ccccc2)cc1,-19,-1.3,5,4,0,-14,2100
COC(=O)CSc1nc(-c2ccccc2)c2c(c1C#N)CCCC2,-3,2.1,25,5,9,-12,3058
CCCCCN(C(=O)COC(=O)c1ccc(Br)o1)c1c(N)n(CCCC)c(=O)[nH]c1=O,-9,-0.3,2,·,·,13,2599
COc1cc2c(cc1OC)[C@@H](NC(=O)CCC1CCCCC1)[C@H](O)C2,-57,4.2,3,5,8,·,3684
CCCn1c(SCC(=O)Nc2ccc(OC)cc2[N+](=O)[O-])n[nH]c1=O,-10,4.3,7,2,7,-13,4458
CCN(C(=O)COC(=O)c1ccc(OC)c(S(=O)(=O)N(C)Cc2ccccc2)c1)C1CCS(=O)(=O)C1 (centres undefined),-9,4.9,4,11,4,7,·
Cc1ccc2nc(N3CC(=O)Nc4ccccc43)nc(-c3ccccc3)c2c1,-1,-2.8,9,2,2,·,2862

# Entries above that contain fluorine:
SMILES,PrP UTR inh,Sa RN4220 lethal,Sa ugtP lethal,Mtb hypoxia inh,Mtb hypoxia inh growth,BJeLR viability,Autofluor counter
Cc1nc2scc(C)n2c(=O)c1S(=O)(=O)Nc1ccc(F)cc1,-21,2.9,-1,8,5,-3,3599
O=C(NC1(C(F)(F)F)N=C(c2ccccc2)NC1=O)c1ccc(Cl)cc1Cl (centres undefined),-12,-3.2,-5,-4,-2,-2,11436
CC(C)Oc1ccc(C(=O)NC2(C(F)(F)F)N=C3SCCN3C2=O)cc1 (centres undefined),-6,2.9,2,-1,2,-3,20653*
O=C(CCS(=O)(=O)c1ccc(F)cc1)N1CCOCC1,-33,-0.8,1,-12,-3,2,5950
O=C(CSc1nc2nn(-c3ccccc3)c(=O)c-2c2n1CCCCC2)c1ccc(OC(F)F)cc1,-26,23,-3,21,8,·,3673
CCCCC(=O)OCC(=O)Nc1ccc(SC(F)F)cc1,-22,5.1,0,6,9,·,4130
O=C(C1CCCO1)N1CCN(S(=O)(=O)c2cc(F)ccc2F)CC1 (centres undefined),-20,0.5,8,4,-14,-2,6240
CC(C)Cc1cc(C(=O)N2N=C(C(F)F)CC2(O)C(F)F)c2ccccc2n1 (centres undefined),-6,5.9,-7,-5,6,0,22633*
Cc1cc(C)[n+](-c2ccc(F)cc2)c2[nH]c(=O)[nH]c(=O)c12,-4,5.0,-2,5,-4,-10,2606
C=CCOc1c(Br)cc(C=NNC(=O)Cc2ccc(C(F)(F)F)cc2[N+](=O)[O-])cc1OC,·,3.5,-1,-7,-3,·,·
CC(C)CCOP(=O)(c1ccc(N(C)C)cc1)C(O)c1ccccc1F (centres undefined),-26,5.1,-7,2,9,3,5525
O=C(c1ccco1)N1CCN(Cc2cc(=O)c(OCc3ccc(F)cc3)co2)CC1,1,-0.8,5,3,5,3,4980
O=C(N[C@@H](Cc1ccccc1)C(=O)N1CCN(S(=O)(=O)c2ccccc2F)CC1)c1ccco1,-18,4.9,-1,-3,9,·,2981
